Tg IFNy HTS – blocks Toxoplasma gondii growth in the presence of IFN-gamma; Toxoplasma gondii growth in IFN-gamma-treated host cells; hits give low values; reference of the scale not given here; AID 1259416; 69,000 compounds, 3.8% hits; activity change, negative = inhibition, %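 (about 20 µM by stock and volumes)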;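 active = below -70%; inconclusive = fit judged invalid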;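 note: host cells are HeLa cells infected with Toxoplasma gondii; parasite growth read as luciferase light; one replicate is shown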
An asterisk follows results filed as active; ? = inconclusive; & = joins results of further samples.

SMILES | Tg IFNy HTS
CCC(=O)N1CCN(CC)C(=O)C(Cc2ccccc2-c2cccs2)C1 (stereo not drawn) | -19
Cc1oc(C2CCN(S(=O)(=O)c3ccc(C(F)(F)F)cc3)CC2)nc1C(=O)N(C)C | ?
Cc1ccc2[nH]cc(CCN3CC(C(=O)Nc4cccc(C)c4C)CC3=O)c2c1 (stereo not drawn) | 86
COc1ccc(C(=O)NCC2OCCc3ccccc32)cc1OC (stereo not drawn) | 48
COC(=O)Cc1cc(C2CCN(Cc3cccnc3OC)CC2)n[nH]1 | -48
COC(=O)c1c(NCCC(C)C)c2cccc(Cl)c2[nH]c1=O | -85*
CCOc1ccccc1C(=O)NC(Nc1ccccn1)(C(F)(F)F)C(F)(F)F | 58
Cc1ccc(CN(Cc2ccc3ncccc3c2)CC2CCCO2)o1 (stereo not drawn) | 17

(more compounds)
SMILES | Tg IFNy HTS
CCc1ocnc1C(=O)N(C)CCc1nc2c(C)cccc2[nH]1 | 0
CCCC#Cc1ccc2c(c1)O[C@H](CN(C)Cc1ccccn1)[C@@H](C)CN([C@H](C)CO)S2(=O)=O | -29
Cc1ccccc1Cn1c(CN2CCC(C(=O)NCCC(C)N3CCCC3)CC2)cc2ccccc21 (stereo not drawn) | 4
CNC(=O)c1cc(=O)n(CC(=O)Nc2ccc(OC)cc2)c2ccccc12 | -4
C=CCn1nc(C(=O)O)c2c1CCC(N(C)Cc1sccc1C)C2 (stereo not drawn) | 4
C[C@@H]1CN([C@@H](C)CO)C(=O)CCCn2nncc2CO[C@H]1CN(C)Cc1ccccc1C(=O)O | 120
COc1ccc2c3c(n(C)c2c1)[C@H](CO)N(C(=O)NC(C)C)CC31CCN(Cc2nccs2)CC1 | 1
O=C(c1ccccc1F)N1CCC(Cn2nc(-c3cccs3)ccc2=O)CC1 | -7

Remaining list, next part.
SMILES | Tg IFNy HTS
CCc1ncnc2c1CCN(S(=O)(=O)C1CC1)CC2 | 4
Cc1ccccc1NC(=O)N1CCCC2(CCCC(=O)N2C)C1 (stereo not drawn) | 65
CC(C)CN1C2COCC1CN(Cc1nccs1)C2 | 0
CNS(=O)(=O)c1ccc([C@@H]2C[C@H](NC(C)=O)C[C@H](CC(C)C)O2)cc1 | -23
Cc1ccccc1C(=O)N1C[C@@H]2C(CN)[C@@H]2C1 (stereo partly drawn) | -63
Cc1ccsc1[C@@H]1CCN(C(=O)CC2=CCCCC2)C[C@H]1O | -33
Cc1ccc(CN2CCC3(CC2)COCCN3CC2CC2)o1 | 24
C[C@H]1CC=CC[C@H](c2cccc(Cl)c2)NC(=O)[C@@H](Cc2ccccc2)N(C)C(=O)c2ccccc2O1 (mixture of isomers) | -55

Later entries.
SMILES | Tg IFNy HTS
CCCCNc1cc(C(=O)O)cc(S(N)(=O)=O)c1Oc1ccccc1 | 20&8&16
Cn1cnnc1C1CCN(C(=O)c2ccccc2C2CCNC2)CC1 (stereo not drawn) | 5
C=C(C)[C@@H]1CC[C@]2(CO)CC[C@]3(C)[C@H](CC[C@@H]4[C@@]5(C)CC[C@H](O)C(C)(C)[C@@H]5CC[C@]43C)[C@@H]12 | 3
OCCNC(=S)Nc1ccc2c(c1)OCCO2 | -39
O=C(C[C@H]1CC[C@@H]2[C@H](COC[C@H](O)CN2S(=O)(=O)c2cccc(Cl)c2)O1)N1CCOCC1 | 4
CC(C)c1ccccc1S(=O)(=O)c1cc(N)c2ncccc2c1[N+](=O)[O-] | 10&28
O=C(COc1ccc2c(=O)c(-c3ccccc3)coc2c1)N1CCCCC1 | -23
O=C(O)CSCC(=O)NC1CCSC1=O (stereo not drawn) | 3

(list continues)
SMILES | Tg IFNy HTS
CC(=O)OCCN1C(=O)c2c(C)nc3ccc(S(=O)(=O)N4CCOCC4)cc3c2C1=O | 37
Cn1cnc2cc(C(=O)Nc3ccc4c(c3)nc(C(F)(F)F)n4C)ccc21 | -27
CCNC(=O)N1CCC2(CC1)N=C(COC)NC2=O | 2
C[C@@H]1CN([C@H](C)CO)C(=O)c2cccc(NC(=O)C3CCOCC3)c2O[C@@H]1CN(C)C(=O)Nc1cccc2ccccc12 | -8
CC(=O)c1ccc(N2C[C@@H]3C4CCC(CC4)[C@@H]3C2)nc1 | 197
CC1=C(C(=O)NCCN(C)C)C2(CCN(S(=O)(=O)c3cccs3)CC2)OC1=O | 19
COCC(=O)N1CC[C@@H]2[C@@H](CO)Nc3ccc(-c4ccc(C(=O)N(C)C)cc4)cc3[C@@H]21 | -30
C[C@H]1CCCCO[C@@H](CN(C)Cc2ccncc2)[C@@H](C)CN([C@@H](C)CO)C(=O)c2cc(NS(=O)(=O)c3ccc(Cl)cc3)ccc2O1 | -65

Seven entries picked at random from those above:
SMILES | Tg IFNy HTS
CCOc1ccccc1C(=O)NC(Nc1ccccn1)(C(F)(F)F)C(F)(F)F | 58
CC(=O)OCCN1C(=O)c2c(C)nc3ccc(S(=O)(=O)N4CCOCC4)cc3c2C1=O | 37
Cc1ccccc1Cn1c(CN2CCC(C(=O)NCCC(C)N3CCCC3)CC2)cc2ccccc21 (stereo not drawn) | 4
Cc1ccc2[nH]cc(CCN3CC(C(=O)Nc4cccc(C)c4C)CC3=O)c2c1 (stereo not drawn) | 86
Cc1ccccc1C(=O)N1C[C@@H]2C(CN)[C@@H]2C1 (stereo partly drawn) | -63
CCc1ncnc2c1CCN(S(=O)(=O)C1CC1)CC2 | 4
Cc1oc(C2CCN(S(=O)(=O)c3ccc(C(F)(F)F)cc3)CC2)nc1C(=O)N(C)C | ?

Going on with the list:
SMILES | Tg IFNy HTS
Cc1ccc(Nc2nc(C(=O)Nc3cc(C)cc(C)c3)nc3ccccc23)cc1 | -7
O=c1onc(-c2ccccc2)c2ccccc12 | 0
COC(=O)c1c(C)cc(O)cc1O | -1
C=C(C)COc1c(CN2CCCC2c2c(C)noc2C)cccc1OC (stereo not drawn) | 21
CCOc1ccccc1NC(=O)CC(=O)NC[C@H]1C[C@H]2C=C[C@H]1C21CC1 | 0
Cc1cccc(NC(=O)c2cc(-c3cn(-c4ccccn4)cn3)n3ccccc23)c1 | 367
CC(Oc1ccccc1-c1ccc(-c2ccn[nH]2)cc1)C(N)=O (stereo not drawn) | 13
COCCN1C(=O)CCc2cc(NC(=O)c3ccc(C)cc3)ccc21 | -5

Next structures.
SMILES | Tg IFNy HTS
Cc1ccccc1C(=O)NCCc1csc(-c2ccc(F)cc2)n1 | -18
Cc1oc(C2CCN(C(=O)c3ccc4c(c3)OCO4)CC2)nc1C(=O)N1CCCC1 | -23
O=C(NCC(CO)Cc1cccs1)c1cccnc1 (stereo not drawn) | -2
Cc1ncn(C23CC4CC(CC(C(=O)NC(c5ccc(F)cc5)C(C)C)(C4)C2)C3)n1 (stereo not drawn) | -8
O=C(CC1N=C2c3ccccc3N=C(SCc3ccc(Cl)cc3)N2C1=O)NCc1ccc(F)cc1 (stereo not drawn) | 4
COc1ccc(-c2ccnc(CO)c2)c(OC)c1 | 4
COc1ccc(N2CCN(C(=O)c3cc4cccnc4n(Cc4ccccc4)c3=O)CC2)cc1 | 61
Cc1oc(-c2ccccc2)nc1CSc1nc2c(=O)[nH]cnc2n1C | -12

Further structures follow:
SMILES | Tg IFNy HTS
CC(C)c1csc(NC(=O)CC2NC(=O)N(c3ccccc3)C2=O)n1 (stereo not drawn) | 22
CN(C)CCN(Cc1cccs1)Cc1c(F)cccc1Cl | -65
Cc1oc(-c2cccc(Cl)c2)nc1CN1CCOC(CCO)C1 (stereo not drawn) | 56
CCN(CC)Cc1cnc2c(C(=O)Nc3ccc4c(c3)OCCO4)cnn2c1 | -17
Cc1nc2ccccc2n1Cc1ccccc1Cl | -65
CC(C)N(C[C@@H]1N[C@@H](CO)[C@@H]1c1ccccc1)S(=O)(=O)c1ccccc1 | 11
Cc1ccc(-c2nc(Cn3nnc(-c4nc(-c5ccc(OC(C)C)cc5)no4)c3C)c(C)o2)cc1 | -39
COCCNC(=O)N1CCC2(CC1)Nc1cc(F)ccc1-n1cccc12 | 111

The list continues:
SMILES | Tg IFNy HTS
CC(C)COC1CC2(CCN(S(=O)(=O)c3cn(C)cn3)CC2)C1 | 3
Cc1cn(CCNC(=O)CC2COc3ccc(C(=O)N(C)C)cc3N2C)nn1 (stereo not drawn) | -7
CCCC(=O)Nc1ccc2c(c1)OC[C@@H](C)NC[C@H](C)[C@H](OC)CN(C)C2=O | 2
CN(C)C(C(=O)NCc1ccccc1N1CCCC1)c1ccc(Cl)cc1 (stereo not drawn) | -24
C[C@@H]1CN([C@@H](C)CO)C(=O)c2ccccc2-c2ccccc2CO[C@@H]1CN(C)C(=O)CCC(F)(F)F | 47
COc1ccc(NCc2nc(-c3ccc(C)cc3)no2)cc1OC | -25
COCCCN1C(=O)CC(CC(=O)N2CCCC2c2ccc(F)cc2)(c2ccccc2OC)C1=O (stereo not drawn) | 4
CCn1cc(C(CNC(=O)Nc2ccc(Br)c(C)c2)c2cccnc2)c2ccccc21 (stereo not drawn) | -36

Further entries follow:
SMILES | Tg IFNy HTS
CC(O)Cn1ccnc1-c1ccc(C#CCCO)cc1 (stereo not drawn) | 68
Cc1ccc(C(Cc2ccsc2)NCc2ccccc2-n2cccn2)nc1 (stereo not drawn) | -7
Cc1cc(-c2cnc(N3CCCC3)nc2C2CCN(C(=O)c3n[nH]c4c3CCC4)CC2)on1 | -82*
CC(C)(C)C(=O)Cn1nnc(N2CCCC2)n1 | -32
Cc1cccc(C(=O)Nc2ccc(-c3nc(Cn4cc(C)cn4)c(C)o3)cc2)c1 | -87*
O=S(=O)(NC1CC2(CCN(CCO)CC2)Oc2ccccc21)C1CC1 (stereo not drawn) | 11
Cc1cc(C)nc(C2CCN(S(=O)(=O)N3CCOCC3)C2)n1 (stereo not drawn) | -45
CCOCCCNC(=O)Cn1ncc2c(N3CCCCC3)ncnc21 | 63

Later entries
SMILES | Tg IFNy HTS
Cc1cc(C(=O)N2CC[C@H]3CN(CCC(C)C)S(=O)(=O)[C@@H]3CC2)no1 | -24
COc1cccc2c1OCC(C(=O)NCCc1nnc3n1CCNCC3)C2 (stereo not drawn) | -59
Cc1ccc(-n2nc(C)c3c2NC(=O)CC3c2ccncc2Cl)cc1 (stereo not drawn) | -12
COc1ccc2c3c([nH]c2c1)[C@H](CO)N(Cc1cc(F)ccc1F)CC31CCN(C(=O)CN(C)C)CC1 | 7
CC(C)(C)CN1CCNC(=O)C1CC(=O)NCc1cccc(OC(F)(F)F)c1 (stereo not drawn) | 10
COc1ccc(CCNC(=O)CN(C)C2CCOC(C)(C)C2)cc1 (stereo not drawn) | -46
CC(=O)N1CCC2(CC1)OC(C(=O)N1CCCC1)Cn1ccnc12 (stereo not drawn) | 10
COc1ccccc1S(=O)(=O)N(C)C[C@@H]1OCc2cn(nn2)CCCC(=O)N([C@H](C)CO)C[C@H]1C | 64

(list continues)
SMILES | Tg IFNy HTS
CNc1cc(C(=O)N[C@@H]2C[C@@H](CO)N(C)C2)ccn1 | -1
C=CCn1c(=O)c(C(=O)Nc2cc(C)ccc2C)c(O)c2ccccc21 | 99
CCc1ccccc1Nc1ncnc2c1cnn2-c1cccc(C)c1 | -51
O=C(Nc1cc(F)ccc1F)c1c(O)c2cccnc2n(-c2cccc(F)c2)c1=O | 286
Cc1ccc2c(c1)c(CNC(C)CCn1cccn1)nn2C (stereo not drawn) | -7
Cn1cccc1C(=O)N1CCC2OCCN(c3cccnc3)C2CC1 (stereo not drawn) | 20
Cc1ccc(C2(O)CCN(c3noc(-c4ccccc4)n3)CC2)nc1 | 132
CC1=C(C(=O)Nc2ccc(Cl)cc2)C2(CCN(S(C)(=O)=O)CC2)OC1=O | 21

Later entries.
SMILES | Tg IFNy HTS
Cc1cc(C)cc(S(=O)(=O)N2CCC3(CCNCC3)C2)c1 | -1
Cc1nnc2n1CC(c1cccc(C(=O)Nc3ncc(Cc4ccccc4F)s3)c1)CC2 (stereo not drawn) | -48
O=C(Cn1ncc2c(N3CCOCC3)ncnc21)NC1CCCC1 | -21
CCOC(=O)C1=C(N)Oc2ccc(Br)cc2[C@H]1[C@H](C#N)C(=O)OCC | -75*
Cc1ccsc1C(=O)N1CC[C@@H]2OCCN(Cc3cccnc3)[C@@H]2C1 | -2
CC(C)N1CCC(CNC(=O)c2cc(-c3ccsc3)n[nH]2)C1 (stereo not drawn) | 4
CC(=O)N1CCC2(CC1)OC(=O)C(C)=C2C(=O)NCCCN1CC(C)CC(C)C1 (stereo not drawn) | 17
Cc1cnc(C(=O)N2C[C@H]3C[C@@H]4[C@@](C2)(CN(CC(C)C)S4(=O)=O)O3)cn1 | 417

More compounds.
SMILES | Tg IFNy HTS
CCn1c(=O)c2ccccc2n(CC(=O)Nc2c(C)cccc2C)c1=O | -14
CC(C)CCN1C2(CCN(S(=O)(=O)C3CC3)C2)c2ccccc2S1(=O)=O (stereo not drawn) | -52
CO[C@@H](CN(C)S(=O)(=O)c1cccc(Cl)c1)[C@@H](C)CN(C(=O)Nc1ccccc1F)[C@@H](C)CO | 3
CCn1ccnc1-c1nccn1CC1CCN(Cc2ccccc2)C1 (stereo not drawn) | 8
CC1CCN(c2ccc(C#N)cc2)CC1 | 0
COc1ccccc1N1CCN(C(=O)c2nc(-c3cccc(F)c3)n3c2CCCCC3)CC1 | ?
CC(C)(C=O)Cc1cc(C(C)(C)C)c(O)c(C(C)(C)C)c1 | -2&-2
Cc1ccsc1C(=O)N1CCC2(CC1)COCCN(c1ncccn1)C2 | 13

Some of these compounds in order of count of non-hydrogen atoms, ascending:
SMILES | Tg IFNy HTS
CC1CCN(c2ccc(C#N)cc2)CC1 | 0
CC(C)(C=O)Cc1cc(C(C)(C)C)c(O)c(C(C)(C)C)c1 | -2&-2
CCn1ccnc1-c1nccn1CC1CCN(Cc2ccccc2)C1 (stereo not drawn) | 8
CCn1c(=O)c2ccccc2n(CC(=O)Nc2c(C)cccc2C)c1=O | -14
COc1ccccc1N1CCN(C(=O)c2nc(-c3cccc(F)c3)n3c2CCCCC3)CC1 | ?

Next section.
SMILES | Tg IFNy HTS
CCCCOc1ccc(C(=O)CCN(CC)CC)cc1 | 69
Cc1ccccc1CNC1=NCCNC12CCN(S(=O)(=O)c1ccc3c(c1)CCCC3)CC2 | 14
O=C(c1ccc2onc(-c3coc(-c4ccccc4)n3)c2c1)N1CCCO1 | 183
CN1Cc2ccccc2CC2(CCN(c3ccccn3)CC2)C1=O | -11
Cc1ccccc1C(=O)NCC(=O)O | 4
CCc1ccc(CN2CC[C@@H]3OC[C@H](C(=O)N4CCCO4)C[C@H]3C2)o1 | 4

An excerpt; the hit share may differ from the screen's.
